Source: PubChem BioAssay
Mtb bLac sens = beta-lactam sensitization of Mtb H37Rv, H37Rv; M. tuberculosis H37Rv growth with meropenem, percent inhibition; hits of this screen are not shown here; inhibition, % at 25 µM; 330,000 tested, 0.27% active;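 active = about 74% or more and at least 40 points above the plate without the antibiotic, then above 30% in a dose series; inconclusive = first-round hits that could not be retested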;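 also: growth measured after seven days incubation then overnight dye step; 0% = bacteria only wells and 100% = bacteria with antibiotic; twin plates without the antibiotic show which effects depend on it; some results filed as inactive read as strong as hits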
* hit, by the source's call; u = inconclusive.

The opening three compounds (preview)
SMILES	Mtb bLac sens
CCOC(=O)[C@H]1[C@H]2COc3ccc(OC)cc3[C@@H]2N2C(=O)c3cc(OC)c(OC)cc3NC(=O)[C@@]12C	-3
N#CCCN(CCC#N)C(=O)C1c2ccccc2Oc2ccccc21	4
CSCCC(NS(=O)(=O)c1ccccc1)C(=O)OC(C)C(=O)Nc1ccc(Cl)cn1 (stereo not given)	-2

Results (from the top)
SMILES	Mtb bLac sens
CCOC(=O)[C@H]1[C@H]2COc3ccc(OC)cc3[C@@H]2N2C(=O)c3cc(OC)c(OC)cc3NC(=O)[C@@]12C	-3
N#CCCN(CCC#N)C(=O)C1c2ccccc2Oc2ccccc21	4
CSCCC(NS(=O)(=O)c1ccccc1)C(=O)OC(C)C(=O)Nc1ccc(Cl)cn1 (stereo not given)	-2
CC(Sc1ccccc1F)C(=O)Nc1cccc(S(=O)(=O)N2CCOCC2)c1 (stereo not given)	-5
CC(OC(=O)c1ccc(S(=O)(=O)NCc2ccco2)cc1)C(=O)Nc1ccccc1 (stereo not given)	-11
COc1cc(SC)ccc1C(=O)Nc1cccc(S(=O)(=O)NC2=NCCC2)c1	3
CC1(c2cccc(Br)c2)NC(=O)N(CC(=O)NCC2CCCO2)C1=O (stereo not given)	-6
Cc1ccc(N)cc1N	75
Cc1ccc(NC(=O)c2nc[nH]c2C(=O)NCCCNC(=O)c2[nH]cnc2C(=O)Nc2ccc(C)cc2)cc1	10
CCOC(=O)[C@H]1[C@H]2COc3ccc(OC)cc3[C@@H]2N2C(=O)c3cc(OC)ccc3NC(=O)[C@@]12C	3
O=C(/C=C(O)/C=C/c1ccc(O)cc1)/C=C/c1ccc(O)cc1	-2
Cc1cc(C)c(C)c(S(=O)(=O)N2CCN(C(=O)c3ccncc3)CC2)c1C	-3
COc1cc(/C=C/C(=O)OC[C@H]2O[C@H](OC3(CO)OC(CO)C(O)C3O)[C@H](O)[C@@H](O)[C@@H]2O)ccc1O (stereo not given in full)	-16
CCOc1ccc(C(C(=O)NC(C)(C)C)N(CCOC)C(=O)CCC(=O)Nc2ccccn2)cc1 (stereo not given)	-11
CCn1c(SC(C)C(=O)Nc2nnc(C)s2)nnc1-c1ccco1 (stereo not given)	3
Cc1nc(C)c(C(=O)OCC(=O)Nc2cccc(C)c2C)s1	0
CCCCN(C(=O)COC(=O)c1nc2nccc(C)n2n1)C1CCS(=O)(=O)C1 (stereo not given)	-1
CC(NC(=O)CCC(=O)NC(C)c1ccccc1)c1ccccc1 (stereo not given)	9
NC(=O)c1ccccc1OCC(=O)Nc1ccc2c(c1)CCC2	1
CSc1ccc(C2=CC(=O)C[C@H](c3ccc(Cl)cc3)C2)cc1	3
COc1cc(NC(=O)CCN2C(=O)NC3(CCCC3)C2=O)c(OC)cc1Cl	-4
CN(CC(=O)Nc1ccc(F)c(F)c1F)C(=O)C1CSC2(C)CCC(=O)N12 (stereo not given)	-5
O=C(O)c1ccccc1N=N/C(=N/Nc1cc(S(=O)(=O)O)ccc1O)c1ccccc1	1
C[C@@H]1O[C@@H](O[C@H]2C[C@@H](O)[C@]3(CO)[C@@H]4C(CC[C@]3(O)C2)[C@@]2(O)CC[C@H](C3COC(=O)C3)[C@@]2(C)C[C@H]4O)[C@H](O)[C@H](O)[C@H]1O (stereo not given in full)	0
CCc1ccc(-c2nc(SCC(=O)c3c(N)n(C)c(=O)n(C)c3=O)n[nH]2)cc1	-9
CC(NC(=O)c1cc(S(=O)(=O)N2CCCC2)ccc1Cl)c1ccccn1 (stereo not given)	-4
CC(C)C(NC(=O)c1ccccc1)C(=O)OCC(=O)N1CCCCC1 (stereo not given)	-3
Cc1cccc(N2CCN(C(=O)c3ccc4ccccc4c3)CC2C)c1 (stereo not given)	-7
COc1ccc(NC(=O)CN2CCCC2c2cccs2)cc1S(=O)(=O)N1CCCCC1 (stereo not given)	-7
Fc1cccc(CCN2CCNC[C@@H]2c2ccccc2)c1	4

Reformatted: entries from further up.
structure: Cc1nc(C)c(C(=O)OCC(=O)Nc2cccc(C)c2C)s1
  Mtb bLac sens = 0

structure: NC(=O)c1ccccc1OCC(=O)Nc1ccc2c(c1)CCC2
  Mtb bLac sens = 1

structure: Cc1cccc(N2CCN(C(=O)c3ccc4ccccc4c3)CC2C)c1 (stereo not given)
  Mtb bLac sens = -7

structure: C[C@@H]1O[C@@H](O[C@H]2C[C@@H](O)[C@]3(CO)[C@@H]4C(CC[C@]3(O)C2)[C@@]2(O)CC[C@H](C3COC(=O)C3)[C@@]2(C)C[C@H]4O)[C@H](O)[C@H](O)[C@H]1O (stereo not given in full)
  Mtb bLac sens = 0

Remaining list, next part.
SMILES	Mtb bLac sens
O=C(NC(=S)Nc1ccc(O)cc1)C1CCCC1	2
COc1ccc(Br)c(C(=O)NCC2CCCCC2)c1	-3
Cc1cccc(C)c1NC(=O)CN(C)C(=O)CCc1nc2sc3c(c2c(=O)[nH]1)CCCC3	-1
O=C(COc1ccc(S(=O)(=O)N2CCOCC2)cc1)NC1CC1	-14
COc1ccc(NS(=O)(=O)c2ccc(C)c(NC(=O)CN3C(=O)NC4(CCCC4)C3=O)c2)cc1	1
COc1ccccc1-c1oc2ccccc2c1C#CCCO	38
O=C(Cn1c(NCCCCl)nc2ccccc21)c1ccccc1	2
COc1ccc(OC)c(/C=C/C(=O)OCC(=O)N2C(C)CCCC2C)c1 (stereo not given)	-3
O=S(=O)(NCCN1CCN(S(=O)(=O)c2ccccc2F)CC1)c1ccccc1F	-6
COc1cc(C(=O)Nc2cccc(S(=O)(=O)NCc3ccco3)c2)cc(OC)c1OC	2
Cc1sc2ncnc(N3CCC(C(=O)Nc4ccc(Cl)c(Cl)c4)CC3)c2c1C	100
O=C(CSc1ccccc1C(=O)N1CCN(c2ccc([N+](=O)[O-])cc2)CC1)N1CCCC1	-10
Cc1ccc2nc(-c3ccncc3)cc(C(=O)N3CCOCC3)c2c1	u
Cn1c(SCC(=O)Nc2sccc2C(N)=O)nc2ccccc2c1=O	-5
Cc1ccc2nc(-c3cccc(SC4CCCCC4)c3)c(NCc3ccccc3)n2c1	0
COc1ccc(OCC(=O)OCC(=O)NC2CCCCC2C)cc1 (stereo not given)	0
O=C(NC(CO)(CO)CO)[C@@H]1CCCN1S(=O)(=O)c1cccc2cccnc12	0
COc1cccc(C2=CC(=O)C[C@H](c3ccc4c(c3)OCO4)C2)c1	9
CN(Cc1ccc(OC(F)F)cc1)C(=O)/C=C/c1ccc(S(=O)(=O)N2CCOCC2)cc1	5
COc1ccc(CC(=O)NC(=S)Nc2cccc(CO)c2)cc1	-6
COC(=O)C1=C(c2cccc(C#N)c2)C[C@@H]2CC[C@H]1N2C(=O)NCCOc1ccccc1Cl	-6
CCCCOc1ccc(C(=O)Nc2ccc(S(=O)(=O)Nc3onc(C)c3C)cc2)cc1	u
Cc1ccc(S(=O)(=O)N2CCC(C(=O)NN3CCCCC3)CC2)cc1	-5
CC(C)[C@H](NC(=O)c1ccccc1Cl)C(=O)OCC(=O)NCc1ccc2c(c1)OCO2	1
CC(c1ccccc1)N(C)C(=O)CSc1nnc(C2CC2)n1C1CC1 (stereo not given)	7
Cc1ccc(S(=O)(=O)N2CCOCC2)cc1NC(=O)COC(=O)Cc1ccccc1	0
Cc1cc(-n2c(C)cc(C(=O)CSc3ccccn3)c2C)no1	-1
C=CCN(c1ccc(Br)cc1C(=O)OC)S(C)(=O)=O	3
CC(=O)c1ccc(OCC(=O)OCC(=O)Nc2sccc2C(N)=O)cc1	-8
COc1ccccc1C(=O)NCCC(=O)Nc1cccc(S(=O)(=O)N2CCCC2)c1	-4

Three compounds picked at random from the list so far, as already listed:
SMILES	Mtb bLac sens
CC(C)[C@H](NC(=O)c1ccccc1Cl)C(=O)OCC(=O)NCc1ccc2c(c1)OCO2	1
CN(Cc1ccc(OC(F)F)cc1)C(=O)/C=C/c1ccc(S(=O)(=O)N2CCOCC2)cc1	5
CC(=O)c1ccc(OCC(=O)OCC(=O)Nc2sccc2C(N)=O)cc1	-8

(further entries)
SMILES	Mtb bLac sens
Cc1ccc(S(=O)(=O)N2CCN(CCOc3cccc(C)c3)CC2)cc1	-12
Cc1ccc(S(=O)(=O)N2[C@@H](c3ccc(C(C)(C)C)cc3)C(C(=O)O)=CC[C@H]2c2ccc3c(c2)OCO3)cc1	3
COc1ccc(S(=O)(=O)N2CCCCCC2)cc1C(=O)NCCc1ccccc1	-1
COc1ccccc1NC(=O)CN1CCCCCC1	-21
CCOC(=O)CNS(=O)(=O)Cc1ccccc1	-5
COc1ccc(-c2sc3ccc(-c4ccc5c(c4)OCO5)cc3c2-c2ccc(OC)nc2)cc1	-4
O=C1C=C(c2ccc(C(=O)O)c(Cl)c2)C[C@@H](c2ccc3c(c2)OCO3)C1	5
COc1ccc(-c2ccc3c(c2)S(=O)(=O)c2cccc(C(=O)NC4CCCC4)c2C3=O)cc1OC	2
COc1ccc(Cl)cc1N1C(=O)CC(N2CCN(S(=O)(=O)c3ccccc3F)CC2)C1=O (stereo not given)	-8
COc1ccc(C2CC(c3ccccc3)=NN2C(=O)COC(=O)c2cccc(N)c2)cc1 (stereo not given)	1
O=C(Cc1ccc(Br)cc1)N1CCN(C(=O)c2ccccc2)CC1	-7
O=C(NCCC(=O)N(Cc1ccco1)Cc1cccs1)c1ccc(Br)cc1	-6
O=C(CCc1nc2ccccc2c(=O)[nH]1)N1CCN(S(=O)(=O)c2ccc(F)cc2)CC1	-9
CCCOc1ccc(C(=O)Nc2ccc(S(=O)(=O)N3C[C@@H]4C[C@@H](C3)c3cccc(=O)n3C4)cc2)cc1	26
CC(C)=CCC[C@](C)(OC1OC(COC2OCC(O)C(O)C2O)C(O)C(O)C1O)C1CC[C@]2(C)C1C(O)CC1[C@@]3(C)CCC(O[C@@H]4O[C@H](CO)C(O)C(O)C4O[C@@H]4OC(CO)C(O)C(O)C4O)C(C)(C)C3CC[C@]12C (stereo not given in full)	-4
Cc1noc(C)c1C(=O)N(CC(=O)Nc1ccccc1Br)Cc1ccco1	3
COCCn1cnnc1SCC(=O)Nc1cccc(S(=O)(=O)N2CCCCC2)c1	-1
Cc1ccc(S(=O)(=O)N2[C@@H](c3ccccc3F)C(C(=O)O)=CC[C@H]2c2ccc(Cl)c(Cl)c2)cc1	3
Cc1ccc(OCCNC(=O)C2CC(=O)N(Cc3ccccc3)C2)cc1 (stereo not given)	-3
CN(C(=O)c1ccc(NC(=O)Cc2ccc([N+](=O)[O-])cc2)cc1)C1CCCC1	12
COc1cc([C@H]2OC[C@H]3[C@@H]2CO[C@H]3c2ccc(O)c(OC)c2)ccc1O	4
O=S(=O)(/N=C(/Nc1nc2ccccc2s1)c1ccccc1)c1ccccc1	-3
O=C(Nc1ccc(Cl)cc1)c1nc[nH]c1C(=O)N1CCN(c2ccccc2)CC1	5
Cc1ccc(CNC(=O)c2c(-c3ccccc3)sc3ccccc23)o1	40
Cc1cccc(C(=O)Nc2ccccc2C(=O)Nc2ccc(C(=O)O)cc2)c1	10
Cc1ccc(C(=O)OCC(=O)NCc2cc(C)c(O)c(C)c2)cc1S(=O)(=O)N1CCCCC1	1
CC(=O)c1ccc(S(=O)(=O)N2CCN(C(C)C(=O)N(C)Cc3ccccc3)CC2)cc1 (stereo not given)	6
O=C(COC(=O)[C@@H]1CCCN1S(=O)(=O)c1ccc(Cl)cc1)NC1CC1	-5
O=C(COc1ccccc1)OCC(=O)c1c[nH]c2ccccc12	21
Nc1nc(SCC(=O)Nc2cccc([N+](=O)[O-])c2)n[nH]1	7

In the list so far, these contain a nitro group on carbon:
SMILES	Mtb bLac sens
O=C(CSc1ccccc1C(=O)N1CCN(c2ccc([N+](=O)[O-])cc2)CC1)N1CCCC1	-10
CN(C(=O)c1ccc(NC(=O)Cc2ccc([N+](=O)[O-])cc2)cc1)C1CCCC1	12
Nc1nc(SCC(=O)Nc2cccc([N+](=O)[O-])c2)n[nH]1	7

Remaining list, next part
SMILES	Mtb bLac sens
COC(=O)[C@]1(C)CCC[C@@]2(C)C3CC[C@@]4(C)C[C@]3(CCC21)CC4=NO (stereo not given in full)	0
COc1ccc(CN2CCc3c([nH]c4ccccc34)C2)cc1Br	-6
Cc1ccc2c(c1)c1c(n2CC(O)CN2CCOCC2)CCCC1 (stereo not given)	4
CCOC(=O)c1ccccc1N	-1
CCOC(=O)N1CCN(C(=O)/C(=C/c2ccc(N(C)C)cc2)NC(=O)c2ccccc2)CC1	-8
COC(=O)C1=C(c2ccc(Cl)c(C(F)(F)F)c2)C[C@@H]2CC[C@H]1N2C(=O)NCCO	-2
O=C(COC(=O)c1cnccn1)Nc1cccc(F)c1	-1
CC(C)C(=O)Nc1nnc(SCC(=O)N2C(C)CCCC2C)s1 (stereo not given)	0
CCc1ccc(NC(=O)C(C)Sc2nnc(CN3CCCC3)o2)cc1 (stereo not given)	0
O=C(CN(Cc1ccco1)C(=O)c1ccc(F)cc1)Nc1ccccc1Br	6
COC(=O)C1=C(c2ccc3ccccc3c2)C[C@@H]2CC[C@H]1N2C	0
CCOC(=O)C1=C(C)NC(=S)NC1c1ccc(OCC(=O)N2CCCCCC2)c(OC)c1 (stereo not given)	-2
O=S(=O)(NCC1CN(S(=O)(=O)c2ccc3c(c2)OCCO3)C1)c1c(F)cccc1F	5
Cc1ccc(NC(=O)c2ccc([N+](=O)[O-])s2)cc1S(=O)(=O)N1CCOCC1	11
CSc1nsc(SCC(=O)Nc2ccc(NC(C)=O)cc2)n1	-4
Cc1ccc(S(=O)(=O)N2CCCCC2)cc1NC(=O)[C@@H]1CCCN1C(=O)c1cccs1	3
COc1ccc(NC(=O)[C@@H]2CCCN2S(=O)(=O)c2ccc(Cl)cc2)cc1	-2
Cc1ccc2nc3c(cc(C(=O)NCC4CCCO4)c(=N)n3C3CCCC3)c(=O)n2c1 (stereo not given)	-4
CC(=O)c1sc(NC(=O)c2ccc(F)c(S(=O)(=O)N3CCOCC3)c2)nc1C	-10

A portion of the library; count on the stated rates, not on these rows.
